# Rango release inh: prevents RanGTP from dissociating the Rango-importin beta complex; O95149+P62826; Biochemical FRET Rango-importin beta, RanGTP-induced dissociation; Potency, µM (doses to about 46.1 µM), without a hit: at the top dose activity change, negative = inhibition; 340,000 compounds, 0.071% hits; AID 540253; active means falling FRET ratio curve, often poorly fitted, with flat reads before Ran was added; inconclusive means other falling curves, or compound fluorescence or quenching; inactive means flat or rising ratio curve;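 also: potency is read from the fitted curve at half-maximal effect; % of control where 0% means no effect; nearly all actives have a fitted effect of over 45% in size; -100% = wells without RanGTP and RCC1; the record marks most hits as doubtful in a second field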
#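 Rango (0.1 uM)–importin beta (0.25 uM) complex; RanGTP-RCC1 trigger; 45 min RT; CFP/YFP FRET read.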
# Rango complex inh: prevents formation of the Rango-importin beta complex; Rango CFP/YFP FRET sensor + importin beta, 45 min; 340,000 compounds, 0.031% hits; Potency, µM (titrated, usually from 92.2 µM), for the others: at the top dose inhibition of complex formation; Q14974; AID 540263; active = rising FRET ratio curve, often small or poorly fitted; inconclusive = mostly compound fluorescence or quenching in the first reads; inactive = flat curves in all reads;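 also: potency is read from the fitted curve at half-maximal effect; 0% = DMSO wells and 100% = buffer wells lacking importin beta; nearly all actives have a fitted effect of over 15% in size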
# Target sequence (Q14974 whole entry, looked up): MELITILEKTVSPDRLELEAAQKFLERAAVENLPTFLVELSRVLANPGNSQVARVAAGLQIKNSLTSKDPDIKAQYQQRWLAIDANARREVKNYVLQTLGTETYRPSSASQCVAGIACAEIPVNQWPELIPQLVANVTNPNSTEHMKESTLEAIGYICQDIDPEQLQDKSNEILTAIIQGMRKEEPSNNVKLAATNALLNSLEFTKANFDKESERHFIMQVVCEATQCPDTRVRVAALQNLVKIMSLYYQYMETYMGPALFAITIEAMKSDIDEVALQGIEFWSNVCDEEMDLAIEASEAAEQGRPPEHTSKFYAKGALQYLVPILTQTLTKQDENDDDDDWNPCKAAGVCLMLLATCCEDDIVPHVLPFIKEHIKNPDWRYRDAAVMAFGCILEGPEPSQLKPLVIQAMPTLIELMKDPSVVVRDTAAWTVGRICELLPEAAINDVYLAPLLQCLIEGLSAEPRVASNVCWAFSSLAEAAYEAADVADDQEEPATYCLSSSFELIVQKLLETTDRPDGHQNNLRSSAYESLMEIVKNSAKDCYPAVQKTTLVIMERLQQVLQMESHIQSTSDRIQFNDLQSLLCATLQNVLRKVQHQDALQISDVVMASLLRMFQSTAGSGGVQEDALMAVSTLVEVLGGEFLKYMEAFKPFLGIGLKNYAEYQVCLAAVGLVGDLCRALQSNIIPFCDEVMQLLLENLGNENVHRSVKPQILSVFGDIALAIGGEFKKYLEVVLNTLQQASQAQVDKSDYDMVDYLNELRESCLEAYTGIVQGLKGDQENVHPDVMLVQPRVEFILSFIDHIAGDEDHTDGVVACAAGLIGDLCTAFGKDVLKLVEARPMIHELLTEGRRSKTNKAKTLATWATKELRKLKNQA
#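 Inhibition scored from the CFP 486 nm/YFP 530 nm FRET ratio 45 min after adding 0.125 microM importin beta to 50 nM Rango biosensor preincubated 5 min with compound (room temperature, PBS with DTT, Tween-20, BSA). No-importin wells as positive control.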
# GLA inh pH 4.5: inhibitors of human alpha-galactosidase A at pH 4.5. P06280. purified enzyme, 4-MU-alpha-Gal fluorescence, pH 4.5. activity change, negative = inhibition, % at 105 µM. 230,000 tested, under 10 active. AID 1467; inconclusive = small, poorly fitted or top-dose-only inhibition, or a rising curve; inactive = flat fitted curve, though single readings scatter; no compound was filed as active;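 also: 0% = full activity with enzyme and -100% = basal without enzyme; dose as in the result columns while the protocol names 77 µM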
# miR-21 reporter: miR-21 reporter, rising signal. HeLa miR-21 FLuc reporter, luciferase, 48 h. Potency, µM (series often up to 38.3 µM), inactives show at the top dose reporter change, positive = more light. 340,000 tested, under 10 active; active = well fitted rising curve with a large enough effect; inconclusive = small, poorly fitted or top-dose-only effect; inactive = no such curve, though single readings can be large or run the other way;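 also: % of control where 0% means no effect; miR-21 action dims this reporter so a rising signal means less miR-21 action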
#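 HeLa miR-21-FLuc reporter line, endogenous miR-21; 2000 cells/well in DMEM/10% FBS; compound titration up to ~40uM final, 48 h, 37 degree Celsius; luciferase detection reagent, 15 min lysis, CCD luminescence.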
# * = called active by the depositor; ? = inconclusive; . = not tested or not shown; & = joins results of further samples; [ ] = remark or other dose.
Rango release inh	Rango complex inh	GLA inh pH 4.5	miR-21 reporter	Molecule
8.2%	-5.5%	.	.	CN(C)C(CNC(=O)CSc1nc2sc3c(c2c(=O)n1C)CCC3)c1ccccc1 (stereo not drawn)
-8.2%	-0.4%	.	.	O=C(CCNC(=O)c1ccco1)Nc1nc(-c2ccccc2)cs1
23.1%	2.1%	.	.	CSc1ccc(CN(C)C(=O)CN2C(=O)NC3(CCCC3)C2=O)cc1
5.5%	-2.7%	-4.3	-5.7%	CC1CC(C)(C)NC(=S)N1CCCC(=O)N1CCN(c2ccc(F)cc2)CC1 (stereo not drawn)
1.0%	0.2%	.	.	O=C(c1ccc(-c2ccccc2Cl)o1)N1CCCC(C(F)(F)F)C1 (stereo not drawn)
1.1%	0.2%	4.6	1.1%	Cc1cccc(N)c1SC1CCCCC1O (stereo not drawn)
3.2%	0.8%	.	-21.6%	COc1cc(NS(=O)(=O)c2ccc(NC(=S)NC(=O)c3ccc(F)c(F)c3)cc2)nc(OC)n1
-3.0%	-2.1%	-3.3[21.1 µM]	-41.8%&-38.4%	Cc1ccc(S(=O)(=O)C2(C(=O)Nc3ccc(C(C)C)cc3)CC2)cc1
0.8%	-0.2%	-8.8	-6.9%	COCCC(=O)N(Cc1ccc2c(c1)OCO2)C(C(=O)NC1CCCCC1)c1ccncc1 (stereo not drawn)
-0.5%	2.3%	-11.6	14.9%	CCn1ncc(C2=NOC(C(=O)NCc3ccc(Cl)cc3)C2)c1C (stereo not drawn)
13.1%	2.5%	-2.1	2.4%	O=C(Nc1ccc(S(=O)(=O)NC2=NCCCCC2)cc1)c1ccco1
?	?	-8.0	-6.1%	CCOC(=O)c1sc(NC(=O)CSc2nc3c(cc2C#N)CCCCCC3)c(C#N)c1C
-3.8%	-0.2%	.	-0.3%	O=c1cc(O)n(C2CCCCCC2)c(=O)[nH]1
14.2%	1.2%	8.9	-29.7%	O=C(O)COn1c(-c2ccc(Cl)cc2)nc2ccc(Cl)cc21
-13.3%	0.1%	-1.8	-10.1%	CCOC(=O)N1CCN(C(=S)NC(=O)c2cncc(Br)c2)CC1
-5.4%	0.5%	-2.3	7.4%	Cc1csc(NC(=O)CSc2nnc(-c3ccoc3C)n2C(C)c2ccccc2)n1 (stereo not drawn)
.	.	-22.3	?	FC(F)(F)c1cccc(NC(=S)NNC(=S)Nc2cccc(C(F)(F)F)c2)c1
-8.8%	5.8%	2.9	-1.7%	O=C(C1=C[C@H](c2ccc(Br)cc2)C[C@H](OCc2ccc(CO)cc2)O1)N1CCOCC1
-8.4%	-0.3%	.	.	Nn1c(SCC(=O)Nc2nnc(-c3ccccc3)o2)nnc1C1CC1
-4.3%	-0.1%	.	2.0%	O=C(c1ccc(NC2=NC3CS(=O)(=O)CC3S2)cc1)N1CCN(c2ccc([N+](=O)[O-])cc2)CC1 (stereo not drawn)
?	?	-3.4	5.0%	COC(=O)C1=C(C)N=C2SC(C#N)=C(N)N2C1c1cccc(OC)c1 (stereo not drawn)
-0.1%	0.5%	-0.1	27.8%	Cc1ccc(C(C[N+](=O)[O-])c2c(C)cc3ccccn23)cc1 (stereo not drawn)
1.1%	5.0%	.	.	CC(=O)OC1C=CCC2C(=O)c3cccc(O)c3C(O)C12 (stereo not drawn)
15.0%	-0.1%	-8.0	0.9%	CC(C(O)C12CC3CC(CC(C3)C1)C2)N1CCCCC1 (stereo not drawn)
-7.5%	-4.8%	2.0	-18.3%	Fc1ccc(-c2ccnc3nc(N4CCOCC4)nn23)cc1

Rango release inh	Rango complex inh	GLA inh pH 4.5	miR-21 reporter	Molecule
0.8%	1.4%	.	.	O=C(CCN=C1NS(=O)(=O)c2ccccc21)OCc1nnc(-c2ccc([N+](=O)[O-])cc2)o1
6.0%	-0.1%	.	-4.7%	CCCC(=O)N1CCN(c2nc3c(OC)ccc(Cl)c3s2)CC1
5.4%	9.2%	.	1.2%	Cc1cnc(CNC(=O)C2CCC(=O)N(CCc3cccc(F)c3)C2)[nH]1 (stereo not drawn)
-7.4%	-0.1%	2.2	?	O=[N+]([O-])c1cc(S(=O)(=O)N2CCCCCC2)ccc1F
3.2%	0.7%	.	-6.8%	O=C(Nc1ccnn1C1CCN(C2CCCC2)CC1)c1ccccc1Cl
1.1%	-0.2%	8.1	-1.5%	CN(C)Cc1ccccc1COc1ccccc1
10.6%	6.3%	?	-5.3%	CC(C)(CC(=O)O)CC(=O)NCc1c(Cl)cccc1Sc1ccc(Cl)cc1
-0.7%	3.2%	-2.8	-14.2%	COc1cccc(OCCn2c(C)c(/C=N/n3cnnc3)c3ccccc32)c1
-13.2%	-4.9%	-4.2	-21.2%	CCCC(=O)Nc1ccc2nc(SCC(=O)N3CCCC3)sc2c1
-1.7%	-0.9%	.	6.8%	O=C(NCCc1cccnc1)c1cc(COc2ccc(F)cc2F)on1
6.3%	1.4%	-1.5	-38.8%	COc1cc(C(=O)O/N=C(\N)c2ccccn2)cc(OC)c1OC
2.7%	-0.8%	2.8	-3.5%	O=c1cc(NCc2ccccc2)nc2n1CCCS2
17.2%	-3.9%	-6.9	-65.4%	O=[N+]([O-])c1cccc(-c2ccc(SCc3ccccn3)nn2)c1
-9.0%	1.2%	-9.9	-1.0%	CC(NC(=O)COc1cc(=O)n(C)c2ccccc12)c1ccc2c(c1)OCCO2 (stereo not drawn)
-17.1%	2.7%	.	13.1%	Cc1ccc(S(=O)(=O)N2CCCC(C)C2)cc1 (stereo not drawn)
1.3%	-2.9%	.	1.6%	Cc1ccc(NC(=O)CCC(=O)NNC(=O)Nc2cccc(Cl)c2)c(C)c1
-8.6%	0.2%	0.1	-7.9%	O=S(=O)(c1cc(Cl)cc(Cl)c1)N1CCCC1c1nc2ccccc2s1 (stereo not drawn)
11.6%	2.6%	.	.	O=C1c2ccccc2C(O)(c2ccccc2)N1c1ccc([N+](=O)[O-])cc1Cl (stereo not drawn)
0.3%	5.6%	.	.	CS(=O)(=O)c1cccc(-c2nnc(NC(=O)c3ccc(S(=O)(=O)N4CCCC4)cc3)o2)c1
19.4%	-0.9%	-3.6	0.4%	O=c1c(Cl)c(N2CCN(c3ccc(F)cc3)CC2)cnn1C12CC3CC(CC(C3)C1)C2
-3.4%	0.9%	.	.	CCC1(c2ccc(F)cc2)NC(=O)N(CC(=O)Nc2cccc(S(=O)(=O)N3CCOCC3)c2)C1=O (stereo not drawn)
-0.9%	0.1%	4.4	1.9%	Cc1cccc(-c2noc(-c3c(C)noc3C)n2)c1
-8.8%	0.2%	-0.5	-5.7%	COc1cc2c(cc1OC)CN(C(=O)c1ccc(S(=O)(=O)N(C)c3ccccc3)cc1)CC2
39.1%	-0.4%	5.4	0.7%	CNC(=O)c1ccc(N(Cc2ccccc2C)S(C)(=O)=O)cc1
-9.4%	0.8%	1.5	-0.3%	CCN1CCN(Cc2nc(N)nc(Nc3ccc(C)c(C)c3)n2)CC1

# Whole records, looked up by structure:
# `COc1cccc(OCCn2c(C)c(/C=N/n3cnnc3)c3ccccc32)c1` reads Rango release inh = -0.7%; Rango complex inh = 3.2%; GLA inh pH 4.5 = -2.8; miR-21 reporter = -14.2%
# `O=c1cc(NCc2ccccc2)nc2n1CCCS2` reads Rango release inh = 2.7%; Rango complex inh = -0.8%; GLA inh pH 4.5 = 2.8; miR-21 reporter = -3.5%
# `CCN1CCN(Cc2nc(N)nc(Nc3ccc(C)c(C)c3)n2)CC1` reads Rango release inh = -9.4%; Rango complex inh = 0.8%; GLA inh pH 4.5 = 1.5; miR-21 reporter = -0.3%

# (further entries)
Rango release inh	Rango complex inh	GLA inh pH 4.5	miR-21 reporter	Molecule
-26.6%	?	?	-7.6%	CCCCN(CC)Cc1c(O)ccc2c3c(c(=O)oc12)CCC3
12.3%	-1.3%	.	.	Cc1cnc(C(=O)OCC(=O)NC(=O)c2ccccc2)cn1
-8.4%	-1.3%	0.7	9.3%	O=C(C1CCC(CNS(=O)(=O)c2cccs2)CC1)N1CCCCC1 (stereo not drawn)
0.7%	-1.6%	.	-36.7%	COc1cccc(/C=C2\SC(N3CCC(C)CC3)=NC2=O)c1OC
18.8%	-1.5%	-1.4	-2.2%	CC(NC(=O)CCN1C(=O)c2ccccc2C1=O)c1ccc2c(c1)CCCC2 (stereo not drawn)
-12.8%	-2.5%	.	-6.3%	COc1ccc(C2c3[nH]c4ccccc4c3C[C@H]3C(=O)N(CCCO)CC(=O)N23)cc1OC (stereo partly drawn)
-0.2%	-5.1%	3.7	-0.4%	CC(CCc1ccccc1)NC(=O)CCNC(=O)Cn1ccc2ccccc2c1=O (stereo not drawn)
0.0%	0.3%	.	-9.8%	COc1ccccc1NC(=O)c1nnn(CC(=O)Nc2cc(C)cc(C)c2)c1N
6.9%	-0.7%	1.1	0.0%	COc1ccc(-c2nc3ccccc3c(=O)n2CCOc2ccc(C)cc2C)cc1
-12.8%	3.7%	.	-10.7%	O=C(CSc1nnc(-c2cccc(F)c2)o1)NC1CCCC1
-11.1%	-0.4%	-10.5	0.2%	CCNC(=O)C(CCSC)NS(=O)(=O)c1ccc(C)cc1 (stereo not drawn)
7.3%	-3.8%	-5.2	-5.6%	O=C(CN1C(=O)COc2ccccc21)NCCCN1CCN(Cc2ccccc2)CC1
-11.8%	-0.7%	-6.2	-11.6%	O=C1NC(=S)N/C1=C/c1cccn1-c1ccc([N+](=O)[O-])cc1
4.1%	4.5%	2.3	-2.6%	COc1cc(NC(=O)COC(=O)C2CC2)c(C)cc1[N+](=O)[O-]
12.6%	?	.	.	Cc1ccc(S(=O)(=O)N2CCCCC2CCNC(=O)C(=O)NCC2CCCO2)cc1 (stereo not drawn)
1.5%	0.6%	.	.	COc1cccc(CNC(=O)CN2C(=O)c3ccccc3S2(=O)=O)c1
0.6%	0.9%	-9.1	-8.2%	O=C(NC1CCCC1)c1ccc(COCC(F)(F)F)o1
-17.9%	0.1%	.	.	CN(C)C(=O)CCc1ccc2c3c([nH]c2c1)[C@]1(C)[C@@H](C(=O)N2CCOCC2)C[C@H](CC(=O)NCc2ccco2)C(=O)N1CC3
-9.5%	2.8%	0.1	-0.2%	CCOC(=O)C(NC(=O)CC)(Nc1ccc(S(N)(=O)=O)cc1)C(F)(F)F (stereo not drawn)
-1.9%	0.2%	-1.1	-52.0%	C/C(=N\NS(=O)(=O)c1ccc(Cl)cc1)c1ccc(NC(=O)c2ccco2)cc1
-0.3%	-4.5%	-8.7	-14.6%	CS(=O)(=O)Nc1cccc(C2=NN(S(C)(=O)=O)C(c3ccc4c(c3)OCO4)C2)c1 (stereo not drawn)
-15.8%	0.2%	-8.5	-49.1%	O=C(/C=C/c1ccccc1)NCCOc1ccccc1
27.2%	1.8%	-1.5	-3.9%	Cc1ncn(C23CC4CC(CC(O)(C4)C2)C3)n1
6.8%	-4.2%	.	-0.7%	Cc1ccc(C)c(NC(=O)C2CC(=O)N(C3CCCCC3)C2)c1 (stereo not drawn)
-23.7%	-0.8%	-7.8	13.2%	COc1cc(/C=N/Nc2nc(C)nc3c2cnn3-c2ccccc2)ccc1O

Rango release inh	Rango complex inh	GLA inh pH 4.5	miR-21 reporter	Molecule
-10.2%	?	-5.2	-6.3%	Cc1ccc(-n2c(N)c(C(=O)Nc3c(C)n(C)n(-c4ccccc4)c3=O)c3nc4ccccc4nc32)cc1
-5.3%	-0.5%	.	1.4%	Cc1cc(NC(=O)CSc2nc(=O)cc(N)n2-c2ccc(C)c(C)c2)no1
9.4%	-1.6%	-1.9	-24.2%	O=C(NC(=S)Nc1ccc(N2CCOCC2)cc1)c1ccc2c(c1)OCCO2
-13.9%	-1.2%	-10.6	6.3%	CCC(c1nnnn1Cc1ccco1)N(CCc1ccccc1)Cc1cc2cccc(C)c2[nH]c1=O (stereo not drawn)
6.4%	-4.0%	.	-29.0%	C#CCn1cnc2c(oc3ccccc32)c1=O

# Not a retest: entries from further up.
Rango release inh	Rango complex inh	GLA inh pH 4.5	miR-21 reporter	Molecule
-23.7%	-0.8%	-7.8	13.2%	COc1cc(/C=N/Nc2nc(C)nc3c2cnn3-c2ccccc2)ccc1O
-10.2%	?	-5.2	-6.3%	Cc1ccc(-n2c(N)c(C(=O)Nc3c(C)n(C)n(-c4ccccc4)c3=O)c3nc4ccccc4nc32)cc1
-5.3%	-0.5%	.	1.4%	Cc1cc(NC(=O)CSc2nc(=O)cc(N)n2-c2ccc(C)c(C)c2)no1

# Screening data: PubChem BioAssay, National Center for Advancing Translational Sciences (NCATS)

# Not all compounds are listed; the hit share may differ from the screen's.
